Vaccinia inh = blocks a specific stage of Vaccinia orthopoxvirus infection, primary screen, cell-based, single point; activity change (mCherry), % (test concentration not listed); AID 1053133, 2014; hit rate 0.01% among 89,000; Vaccinia-infected cells, mCherry/Venus stage reporter fluorescence; active compounds read low; some inactives read as strong as hits;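 active means mCherry past -33% and 40 or more points under the early reporter, replicates agreeing; inconclusive means past -33% without that gap or agreement; tested in A549 cells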;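 further: scaled between vehicle wells and reference inhibitor wells; 23 nL library stock went into each well; one replicate is shown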
Vaccinia inh Venus = second read-out of Vaccinia inh, no call of its own (marks repeat the call); activity change (Venus), %; measured here: Venus reporter, other viral stage;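 negative = less Venus signal; first of two replicates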
* hit, by the source's call; u = inconclusive; x = no result given. A portion of the library. The share of hits here may be higher or lower than overall.

Values run as follows: Vaccinia inh	Vaccinia inh Venus
- CC=Cc1ccc2n(c1=O)C[C@@H]1[C@@H](CO)[C@H](C(=O)Nc3ccccc3)N(CC3CC3)[C@H]21 (mixture of isomers)
  7	5
- C[C@H](CO)N1C[C@H](C)[C@H](CN(C)C)Oc2c(NC(=O)Nc3ccc(F)cc3)cccc2C1=O
  -3	1
- COc1ccc(NC(=O)Nc2ccc3c(c2)C(=O)N([C@@H](C)CO)C[C@H](C)[C@H](CN(C)S(=O)(=O)c2ccc(Cl)cc2)OCCCC[C@@H](C)O3)cc1
  8	-3
- N#Cc1cccc(-c2ccc(C3[C@H]4CNC[C@@H]3N4S(=O)(=O)Cc3ccccc3)cc2)c1 (stereo partly drawn)
  7	9
- C[C@@H]1CN([C@@H](C)CO)C(=O)c2cc(NC(=O)C3CC3)ccc2O[C@@H]1CN(C)C(=O)Nc1ccc2c(c1)OCO2
  1	3
- Cc1ccccc1S(=O)(=O)N1CC[C@@H]2[C@@H](CO)N(C)c3ccc(-c4cccc(C#N)c4)cc3[C@@H]21
  u	x
- CC=Cc1ccc2n(c1=O)C[C@@H]1[C@@H](CO)[C@H](C(=O)N(C)C)N(CC3CCOCC3)[C@H]21 (mixture of isomers)
  0	0
- CN1C(=O)c2cc(NC(=O)C3CC3)ccc2OC[C@H]2O[C@@H](CC(=O)Nc3cccc(Cl)c3)CC[C@@H]21
  25	12
- O=C([C@@H]1[C@@H](CO)[C@@H]2Cn3c(ccc(-c4ccncc4)c3=O)[C@@H]2N1CCC(F)(F)F)N1CCOCC1
  1	11
- COc1ccc(NC(=O)N(C)C[C@H]2Oc3cc(-c4cccc(C(=O)N(C)C)c4)ccc3S(=O)(=O)N([C@H](C)CO)C[C@@H]2C)cc1
  5	-6
- O=C(Cc1ccccn1)N[C@H]1C=C[C@H](CC(=O)N2CCCCC2)O[C@@H]1CO
  -12	-6
- CO[C@@H]1CN(C)C(=O)c2cc(NC(=O)C3CCC3)ccc2OC[C@@H](C)N(C(=O)NC(C)C)C[C@H]1C
  8	9
- CCN1CC(=O)N2[C@H](CO)[C@@H](c3ccc(Br)cc3)[C@H]2C1
  19	13
- C[C@@H]1CN([C@@H](C)CO)C(=O)c2cc(NC(=O)Nc3ccc(F)cc3)ccc2O[C@@H](C)CCCCO[C@H]1CN(C)S(=O)(=O)c1cn(C)cn1
  18	8
- Cc1ccc(S(=O)(=O)N(C)C[C@@H]2OCCCC[C@H](C)Oc3ccc(NC(=O)Nc4ccc(F)cc4)cc3C(=O)N([C@H](C)CO)C[C@H]2C)cc1
  -2	8
- CO[C@H]1CN(C)C(=O)c2cc(NC(=O)CC(F)(F)F)ccc2OC[C@H](C)N(S(=O)(=O)c2cn(C)cn2)C[C@H]1C
  13	14
- Cc1ccc(S(=O)(=O)Nc2ccc3c(c2)C(=O)N([C@H](C)CO)C[C@H](C)[C@@H](CN(C)S(=O)(=O)c2ccccc2)OCCCC[C@H](C)O3)cc1
  u	x
- C[C@H](CO)N1C[C@H](C)[C@H](CN(C)C(=O)NC2CCCCC2)Oc2ncc(C#Cc3ccc(C(F)(F)F)cc3)cc2C1=O
  -30	-21
- C[C@@H](O)C#Cc1ccc([C@@H]2[C@@H](CO)N3CCCCN(C(=O)c4ccc5c(c4)OCO5)C[C@H]23)cc1
  6	3
- CN(C)CC(=O)Nc1ccc2c(c1)[C@@H]1C[C@H](CC(=O)NCc3ccccc3)O[C@H](CO)[C@@H]1O2
  19	16

The closing 2 compounds of the section before are carried over, then new ones follow.
Values run as follows: Vaccinia inh	Vaccinia inh Venus
- C[C@@H](O)C#Cc1ccc([C@@H]2[C@@H](CO)N3CCCCN(C(=O)c4ccc5c(c4)OCO5)C[C@H]23)cc1
  6	3
- CN(C)CC(=O)Nc1ccc2c(c1)[C@@H]1C[C@H](CC(=O)NCc3ccccc3)O[C@H](CO)[C@@H]1O2
  19	16
- C[C@@H]1CN([C@@H](C)CO)S(=O)(=O)c2ccc(Br)cc2O[C@H]1CN(C)C(=O)c1cnccn1
  -6	-6
- Cc1cccc(-c2ccc([C@H]3[C@H]4CN(C(=O)c5ccc6c(c5)OCO6)CCCCN4[C@H]3CO)cc2)c1
  -33	-23
- CC(C)NC(=O)Nc1ccc2c(c1)CC(=O)N([C@H](C)CO)C[C@@H](C)[C@@H](CN(C)CC1CCCCC1)O2
  3	3
- COc1ccc(S(=O)(=O)Nc2ccc3c(c2)[C@@H]2C[C@@H](CC(=O)NCC4CC4)O[C@H](CO)[C@@H]2O3)cc1
  -9	-6
- COc1ccc(C#Cc2cnc3c(c2)C(=O)N([C@H](C)CO)C[C@H](C)[C@@H](CN(C)C(=O)CC2CC2)O3)cc1
  0	-5
- CC=Cc1ccc2n(c1=O)C[C@@H]1[C@@H](CO)[C@H](C(=O)NCCOC)[C@H]2N1Cc1ccccc1OC (mixture of isomers)
  15	3
- COc1ccc(NC(=O)Nc2ccc3c(c2)C(=O)N([C@@H](C)CO)C[C@H](C)[C@H](CN(C)S(=O)(=O)c2ccc(C)cc2)O3)cc1
  4	7
- C[C@H]1CN([C@@H](C)CO)S(=O)(=O)c2ccc(C#CC3(O)CCCC3)cc2O[C@@H]1CN(C)C(=O)Nc1cccc(F)c1
  u	x
- CC(C)NC(=O)N(C)C[C@H]1Oc2ccc(NS(=O)(=O)c3ccccc3)cc2C(=O)N([C@@H](C)CO)C[C@@H]1C
  13	-4
- C[C@@H]1CN([C@H](C)CO)C(=O)c2cc(NS(=O)(=O)c3ccc(F)cc3)ccc2O[C@@H](C)CCCCO[C@H]1CN(C)Cc1ccc2c(c1)OCO2
  u	x
- C[C@@H]1CN([C@H](C)CO)C(=O)c2cc(NC(=O)c3ccncc3)ccc2O[C@@H](C)CCCCO[C@@H]1CN(C)CC1CC1
  9	8
- C[C@@H]1CN([C@H](C)CO)C(=O)c2cc(C3=CCCC3)cnc2O[C@@H]1CN(C)C(=O)CN(C)C
  19	8
- CCCNC(=O)N1CC2(CCN(Cc3cccc(F)c3)CC2)c2c([nH]c3cc(OC)ccc23)[C@H]1CO
  u	x
- O=C(C[C@H]1C=C[C@@H](NC(=O)C2CCOCC2)[C@H](CO)O1)Nc1ccccc1
  3	4
- O=C(Nc1ccc(Cl)c(Cl)c1)N[C@H]1CC[C@@H](CCn2cc(C3CC3)nn2)O[C@H]1CO
  -28	-15
- Cc1noc(C)c1S(=O)(=O)N(C)C[C@H]1Oc2ccc(NC(=O)NC3CCCCC3)cc2CC(=O)N([C@@H](C)CO)C[C@H]1C
  11	7
- O=C(CN1CCOCC1)NCC[C@@H]1CC[C@H](NC(=O)Nc2ccc(F)cc2)[C@H](CO)O1
  5	3
- C[C@@H]1CN([C@H](C)CO)C(=O)c2ccccc2-c2ccccc2CO[C@@H]1CN(C)C(=O)Nc1cccc(Cl)c1Cl
  u	x
- C[C@@H]1CN([C@H](C)CO)S(=O)(=O)c2ccc(C#Cc3ccccc3)cc2O[C@@H]1CN(C)C(=O)C1CC1
  u	x
- COCC(=O)Nc1ccc2c(c1)[C@@H]1C[C@@H](CC(=O)NCc3ccncc3)O[C@@H](CO)[C@@H]1O2
  3	2
- COc1ccc(S(=O)(=O)Nc2cccc3c2O[C@H](CN(C)S(=O)(=O)c2ccc(Cl)cc2)[C@@H](C)CN([C@H](C)CO)C3=O)cc1
  10	14
- COC(=O)[C@H]1[C@H](CO)[C@H]2Cn3c(ccc(-c4ccccc4OC)c3=O)[C@H]2N1C(=O)c1cccnc1
  8	8
- C/C=C/c1ccc([C@H]2[C@@H](CO)N3C(=O)CN(C(=O)CC4CC4)C[C@@H]23)cc1
  21	7
- CCCNC(=O)C[C@H]1CC[C@H]2[C@@H](COc3ccc(NC(=O)CC)cc3C(=O)N2C)O1
  -2	3
- CO[C@@H]1CN(C)C(=O)c2cc(NC(C)=O)ccc2OC[C@@H](C)N(Cc2ccccn2)C[C@@H]1C
  -10	3
- O=C(Nc1ccccc1F)N1CC(=O)N2[C@@H](CO)[C@H](c3ccc(-c4cccnc4)cc3)[C@@H]2C1
  12	8
- COc1ccc(S(=O)(=O)N(C)C[C@@H]2Oc3ccc(NC(=O)C4CC4)cc3C(=O)N([C@H](C)CO)C[C@H]2C)cc1
  9	3
- CO[C@@H]1CN(C)C(=O)c2cc(NC(=O)Cc3ccccc3)ccc2OC[C@@H](C)N(CCc2ccccc2)C[C@H]1C
  u	x
- CN(C)CC(=O)N[C@H]1CC[C@H](CCNC(=O)Nc2ccc(F)cc2)O[C@H]1CO
  -10	-4
- C[C@H]1CN([C@@H](C)CO)C(=O)c2cc(C#Cc3cccc(F)c3)cnc2O[C@H]1CN(C)C(=O)C1CC1
  7	0
- CO[C@@H]1CN(C)C(=O)c2ccc(NS(=O)(=O)c3ccccc3F)cc2OC[C@H](C)NC[C@@H]1C
  2	4
- C[C@H](CO)N1C[C@H](C)[C@H](CN(C)Cc2ccc(F)cc2)Oc2cc(C#Cc3ccccn3)ccc2S1(=O)=O
  -30	-17
- O=C(C[C@@H]1CC[C@@H]2[C@H](COC[C@@H](O)CN2Cc2ccccc2F)O1)N1CCc2ccccc2C1
  -23	-15
- CC(C)(C)[S@](=O)N1Cc2cc(C(=O)NCc3ccccc3F)nc(-c3cccc(-c4ccncc4)c3)c2[C@@H]1CCO
  -29	-4
- CC(C)NC(=O)N(C)C[C@H]1OCCCC[C@@H](C)Oc2ccc(NC(=O)c3ccncc3)cc2C(=O)N([C@@H](C)CO)C[C@@H]1C
  13	2
- CCCN(C)C[C@H]1OCCCC[C@@H](C)Oc2ccc(NC(=O)CCCN(C)C)cc2C(=O)N([C@@H](C)CO)C[C@H]1C
  7	10
- COC(=O)C[C@H]1CC[C@H]2[C@@H](COC[C@@H](O)CN2CCC(F)(F)F)O1
  6	22
- CO[C@H]1CN(C)C(=O)c2ccc(NC(=O)Nc3ccc(C(F)(F)F)cc3)cc2OC[C@@H](C)NC[C@@H]1C
  -26	-6
- C[C@@H]1CN([C@H](C)CO)C(=O)c2cc(Br)cnc2O[C@@H]1CN(C)C(=O)Nc1ccccc1
  25	9
- CCCC(=O)Nc1ccc2c(c1)C(=O)N(C)C[C@@H](OC)[C@@H](C)CN(C(C)=O)[C@@H](C)CO2
  6	-4
- C[C@@H]1CN([C@@H](C)CO)C(=O)Cc2cc(NC(=O)CCCN(C)C)ccc2O[C@H]1CN(C)C(=O)Nc1ccccc1
  19	24
- CN(C)C(=O)[C@@H]1[C@@H](CO)[C@@H]2Cn3c(ccc(-c4cncnc4)c3=O)[C@@H]2N1Cc1cc(F)ccc1F
  6	5
- CNC[C@@H]1Oc2ccc(NC(=O)NC(C)C)cc2CC(=O)N([C@H](C)CO)C[C@H]1C
  5	7
- CCCNC(=O)Nc1ccc2c(c1)C(=O)N(C)[C@H]1CC[C@H](CC(=O)OC)O[C@@H]1CO2
  26	16
- COCC(=O)N(C)C[C@H]1Oc2ncc(C#C[C@@H](C)O)cc2C(=O)N([C@@H](C)CO)C[C@H]1C
  6	5
- O=C(Nc1ccc2c(c1)[C@H]1C[C@@H](CC(=O)N3CCOCC3)O[C@H](CO)[C@H]1O2)Nc1ccccc1F
  6	8
- CCNC(=O)C[C@H]1CC[C@H](NS(=O)(=O)c2ccc(C)cc2)[C@@H](CO)O1
  -2	17
- C[C@H]1CCCCO[C@H](CN(C)C)[C@@H](C)CN([C@@H](C)CO)C(=O)c2cc(NC(=O)Nc3cccc4ccccc34)ccc2O1
  -26	-18
- Cc1ccc(S(=O)(=O)Nc2ccc3c(c2)C(=O)N([C@@H](C)CO)C[C@H](C)[C@H](CN(C)S(=O)(=O)c2ccc(F)cc2)OCCCC[C@H](C)O3)cc1
  -22	-17
- C[C@@H]1CN([C@@H](C)CO)S(=O)(=O)c2ccc(-c3ccccc3)cc2O[C@H]1CN(C)CC1CC1
  2	-10

Single records, from the list above. Values in the order: Vaccinia inh, Vaccinia inh Venus
C[C@@H]1CN([C@@H](C)CO)C(=O)c2cc(NC(=O)Nc3ccc(F)cc3)ccc2O[C@@H](C)CCCCO[C@H]1CN(C)S(=O)(=O)c1cn(C)cn1 reads 18, 8
CCCNC(=O)Nc1ccc2c(c1)C(=O)N(C)[C@H]1CC[C@H](CC(=O)OC)O[C@@H]1CO2 reads 26, 16
O=C(C[C@H]1C=C[C@@H](NC(=O)C2CCOCC2)[C@H](CO)O1)Nc1ccccc1 reads 3, 4
C[C@@H]1CN([C@@H](C)CO)C(=O)c2cc(NC(=O)C3CC3)ccc2O[C@@H]1CN(C)C(=O)Nc1ccc2c(c1)OCO2 reads 1, 3
CC=Cc1ccc2n(c1=O)C[C@@H]1[C@@H](CO)[C@H](C(=O)NCCOC)[C@H]2N1Cc1ccccc1OC (mixture of isomers) reads 15, 3

Remaining list, next part:
Values run as follows: Vaccinia inh	Vaccinia inh Venus
- O=C(C[C@@H]1CC[C@H](NC(=O)C2CCOCC2)[C@H](CO)O1)NCC1CC1
  11	5
- CCC(=O)N(C)C[C@@H]1Oc2ncc(C#Cc3ccc(OC)cc3)cc2C(=O)N([C@@H](C)CO)C[C@@H]1C
  23	7
- C[C@H]1CCCCO[C@@H](CN(C)C(=O)C2CCCCC2)[C@@H](C)CN([C@@H](C)CO)C(=O)c2cc(NS(=O)(=O)c3cccs3)ccc2O1
  u	x
- C[C@@H](NC(=O)C[C@@H]1C=C[C@@H](NC(=O)Cc2ccccn2)[C@@H](CO)O1)c1ccccc1
  2	2
- C[C@H]1CN([C@@H](C)CO)C(=O)c2cc(-c3cccc(F)c3)cnc2O[C@@H]1CN(C)C(=O)c1ccccn1
  -14	-8
- C[C@@H]1CN([C@@H](C)CO)C(=O)c2cccc(N(C)C)c2O[C@H]1CN(C)Cc1ccc(C(F)(F)F)cc1
  -25	-25
- COc1ccc(NC(=O)N(C)C[C@H]2Oc3ccc(NC(=O)Nc4c(C)noc4C)cc3CC(=O)N([C@@H](C)CO)C[C@@H]2C)cc1
  8	11
- COc1ccc(NC(=O)Nc2ccc3c(c2)CC(=O)N([C@@H](C)CO)C[C@H](C)[C@H](CN(C)S(=O)(=O)c2c(C)noc2C)O3)cc1
  23	23
